Compound activity: PubChem BioAssay, ICCB-Longwood Screening Facility, Harvard Medical School
BmaI1 – BmaI1 acyl-homoserine lactone synthase inhibition – biochemical, fluorescence intensity, with counterscreen (AID 720554); BmaI1 enzyme assay, fluorescence intensity; hits give high values; test concentration not given here; a few actives read low; strong numbers were not always called active; inhibition, %; 12,000 tested, 0.4% active;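 active means both replicates within 2 robust z-scores of the inhibited control and a quiet counterscreen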;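 further: 0% = uninhibited enzyme and 100% = inhibited control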
BmaI1 counterscreen – also measured in BmaI1; calls as there; inhibition, %; measured here: counterscreen; design of the counterscreen not given here;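 first of two replicates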
Numbers without * were called inactive. An excerpt; rates above refer to the full screens.

SMILES	BmaI1	BmaI1 counterscreen
N=c1sccn1CC(=O)NC(=O)NC1CCCC1	-14	-10
CC(C(=O)NCC1CCCCC1)N1CCN(c2ccc(F)cc2)CC1 (stereo not drawn)	12	3
Cc1sc2nc(CSCC(=O)NC(=O)c3cccn3C)[nH]c(=O)c2c1C	8	0
CC1CCCCC1NC(=O)COC(=O)c1ccc(O)cc1 (stereo not drawn)	18	14
N#CC1(C(=O)OCC(=O)N2CCN(C(=O)COC(=O)C3(C#N)CCCC3)CC2)CCCC1	8	0
COc1ccccc1NC(=O)Cc1noc(CN(C)Cc2cccs2)n1	-5	6
CCOC(=O)C1=C(CC)Nc2ccccc2N=C1N=Cc1c(O)[nH]c(=O)[nH]c1=O	14	2
C/C(=N\NC(=O)c1cccnc1)c1ccc(Cl)s1	24	28
c1ccc(-c2[nH]nc(-c3ccc4c(c3)OCO4)c2-c2nc3ccccc3[nH]2)cc1	12	4
CNCC[C@@H](Oc1ccccc1C)c1ccccc1	2	2
COc1ccccc1N=P12CN3CN(CN(C3)C1)C2	20	0
CC(C)(C)NC(=O)/C(C#N)=C/c1ccc(OC(F)F)cc1	28	13
O=C(NCc1cccc(C(F)(F)F)c1)c1ccc(S(=O)(=O)NCc2ccco2)cc1	12	6
CN1CCN(CCCN2c3ccccc3Sc3ccc(Cl)cc32)CC1	-28	-7
NS(=O)(=O)c1ccc2nc(NC(=O)c3cccs3)sc2c1	18	2
Cc1ccc(N2C(=O)CC3(CCCC3)C2=O)cc1	11	2
CCCNCC(O)COc1ccccc1C(=O)CCc1ccccc1 (stereo not drawn)	12	19
Cn1c(SC/C(O)=C(\C#N)c2nc3ccccc3[nH]2)nc2ccccc21	16	12
C/C(N)=C(/C#N)C(=O)Cn1ncc(Cl)c(Cl)c1=O	20	6
N=C1C(c2nc3ccccc3s2)=C(O)CN1/N=C1\C(=O)Nc2ccccc21	12	43
CC1=C(C#N)C(c2cccnc2)C2=C(N1)c1ccccc1C2=O (stereo not drawn)	-64	-38
Cc1oc(-c2ccccc2)nc1C(=O)Nc1ccccc1C(=O)NC1CC1	3	2
Cc1nn(Cc2ccccc2Cl)c2sc(C(=O)NC3CC3)cc12	20	12
S=c1nccc(-c2ccccc2)[nH]1	108	105
Cc1cccc(-c2nnc(SCC(=O)C34CC5CC(CC(C5)C3)C4)n2Cc2ccco2)c1	17	-2
Cc1[nH]c2ccccc2c1C(=O)C(C)OC(=O)C1CC1 (stereo not drawn)	8	2
CNC(=O)Cn1nc(C)c(S(=O)(=O)N(C)C)c1C	2	1
CCCN(CCC)S(=O)(=O)c1ccc(C(=O)O)cc1	0	13
Cc1ccc2nc(SC(C)C(=O)N3CC(C)OC(C)C3)[nH]c2c1 (stereo not drawn)	-2	0
CN(C)S(=O)(=O)c1ccc(Cl)c(C(=O)OCC(N)=O)c1	-4	-12
CC(C)CC(NS(C)(=O)=O)C(=O)O (stereo not drawn)	10	4
NS(=O)(=O)c1cc(C(=O)Nc2ccccc2N2CCOCC2)ccc1Cl	5	2
N#CCn1c(COC(=O)CNC(=O)c2cccs2)nc2ccccc2c1=O	8	-3
COC(=O)Cn1c(=O)cc(N)n(Cc2ccccc2)c1=O	10	9
O=C(Cn1[nH]c(=O)c2ccccc2c1=O)NCCCSc1ccc(F)cc1	-2	-1
CCCc1cc(=O)[nH]c(SC(C)C(=O)c2ccccc2)n1 (stereo not drawn)	2	2
O=C(COc1ccc2c(c1)CCC2)N(Cc1nnc(-c2ccc(Cl)cc2)o1)C1CC1	6	0
O=C1CN(S(=O)(=O)c2cccc(C(=O)O)c2)c2ccccc2N1	14	2
CCC(=O)C(C#N)c1nnc(-c2ccccc2)s1 (stereo not drawn)	-12	6
CC(=O)NC(CC(=O)N1CCN(c2ccccc2)CC1)c1ccccc1 (stereo not drawn)	36	6
COc1cc2c(cc1OC)C(c1ccccc1)N(C(=O)COC(=O)C1CC1)CC2 (stereo not drawn)	18	13
CCC(CC)c1nnc(NC(=O)CN2C(=O)C3CC=CCC3C2=O)s1 (stereo not drawn)	12	4
CCN(CC(=O)NCc1ccc(F)cc1)c1ccc(S(=O)(=O)N(CC)CC)cn1	10	11
C=CCOc1ccc(CN(C)Cc2cccc(S(=O)(=O)N(C)C)c2)cc1	17	-8
CCC(CO)Nc1ncnc2c1cnn2-c1ccc(Cl)cc1 (stereo not drawn)	1	-1
O=c1c(Cl)c(Cl)cnn1CN1CCN(Cc2ccc3c(c2)OCO3)CC1	16	14
C=C(C)CN(CC)C(=O)Cn1c(NCc2ccccc2)nc2ccccc21	17	10
CN(CC(=O)NCC1CCCCC1)S(=O)(=O)c1ccc(F)cc1	-3	-2
Cc1ccc(-c2csc(/C(C#N)=C(\O)CSc3ncn[nH]3)n2)cc1	44	54
NS(=O)(=O)c1ccc(-c2ccc(/C=N/NC(=O)c3cccnc3)o2)cc1	-2	-6
C1C2C3C4OC5C3C1C1C2C4C51 (stereo not drawn)	14	4
COC(=O)C(=NNc1ccc(SC(F)(F)F)cc1)C(=O)OC	10	8
CCn1c(O)c(C=NCCn2c(C)nc3ccccc32)c(=O)n(CC)c1=S	10	9
CC(=O)Nc1ccc(SCC(=O)/C(C#N)=C(\C)N)cc1	6	10
CC(C)n1c(/C=C/[C@@H](O)C[C@@H](O)CC(=O)O)c(-c2ccc(F)cc2)c2ccccc21	-4	0
N#Cc1ccc(COC(=O)CSC2CCS(=O)(=O)C2)cc1 (stereo not drawn)	8	7
CCN(CC)c1ccc(C(F)(F)F)cc1N	22	4
CN(C)S(=O)(=O)c1cccc(COc2ccc(C#N)cc2)c1	5	4
CCN(CC)C(=S)SSC(=S)N(CC)CC	96*	-14*
CN(C)S(=O)(=O)c1ccc(=O)n(CC(=O)N2CC(=O)Nc3ccccc32)c1	13	15

The listing continues.
SMILES	BmaI1	BmaI1 counterscreen
C[C@H](NS(=O)(=O)c1cccc2nsnc12)C(=O)OCc1ccccc1	10	8
O=C1OCCC1Sc1nnc(-c2cccs2)o1 (stereo not drawn)	10	10
CCOC(=O)c1c(C)oc2nc[nH]c(=O)c12	-10	-11
CCOCC(=O)OCc1cc(=O)oc2cc(C)c(Cl)cc12	6	2
Cc1ccc(F)cc1NC(=O)[C@H](C)N1C(=O)C2CC=CCC2C1=O (stereo partly drawn)	6	2
CCC(=O)OCC(=O)Nc1nc2ccccc2s1	12	11
Cc1noc(C)c1CSc1nc2ccccc2nc1NS(=O)(=O)c1ccc(Cl)cc1	42	10
COC(=O)C1Cc2ccccc2CN1C(=O)CSc1nc(C)cs1 (stereo not drawn)	22	12
CNNCc1ccc(C(=O)NC(C)C)cc1	-40	-36
O=C1NC(Cc2c[nH]c3ccccc23)C(=O)N1Cc1ccc(Cl)cc1 (stereo not drawn)	-2	-10
O=C(Cn1nnc2ccccc2c1=O)N1N=C(c2cccs2)CC1c1cccs1 (stereo not drawn)	12	0
COCC(C)N=C1NN=C(c2ccc(O)cc2O)CS1 (stereo not drawn)	2	0
Cc1cc(C2=NN(C)C(=NCc3ccccc3)SC2)c(C)n1Cc1ccco1	1	6
Cc1cc(Nc2ccccc2)n(CCOC(=O)COc2ccccc2)n1	54	34
Cc1cc(NC(=O)COC(=O)CSc2ccccc2)no1	10	0
COc1ccccc1Nc1nnc(SCC(=O)N(C)Cc2cccs2)s1	22	2
CC(OC(=O)C1COc2ccccc2O1)C(=O)c1ccccc1 (stereo not drawn)	6	1
Cn1c(=NC(=O)c2ccc(=O)n(Cc3ccccc3)n2)sc2ccccc21	6	-2
CCN1CCCC1CNc1nsc2ccccc12 (stereo not drawn)	43	24
Cc1ccc(C(C)C)cc1OCC(=O)N=c1sccn1C	16	8
NC(=O)Nc1ccc(C(=O)OCC(=O)Nc2ccc(F)cc2F)cc1	10	8
CN(C)c1ccc(P(=S)(N(C)C)N(C)C)cc1	-4	-8
Cc1cnc(C(=O)NCCc2ccc(S(=O)(=O)NC(=O)NC3CCCCC3)cc2)cn1	6	10
COC(=O)C1=C(C)NC(C)=C(C(=O)OC)C1C(=O)OCC(=O)c1cc(C)n(C2CC2)c1C	7	4
COc1ccc(-c2nnc(SCC(=O)Nc3cc(C(C)(C)C)nn3-c3ccccc3)o2)cc1	4	-6
NS(=O)(=O)c1ccc(NC(=O)COC(=O)Cc2ccccc2)cc1	2	-4
O=C(OCC(=O)N1CCCC1=O)c1n[nH]c2ccccc12	2	6
CC(Sc1nncn1C(C)C)C(=O)c1c[nH]c2ccccc12 (stereo not drawn)	16	8
Cc1cc(C(=O)O)c(C)n1C1CC1	1	4
CCOC(=O)c1c(-c2ccccc2)oc2ccc(OC(=O)Cc3n[nH]c(=O)c4ccccc34)cc12	11	12
CCNC(=O)C(C)NC1CCN(C(C)C)CC1 (stereo not drawn)	12	10
CC(Nc1nnnn1-c1ccccc1)c1ccccc1 (stereo not drawn)	6	9
O=C1CSc2ccc(C(=O)OCCCn3c(=O)[nH]c4ccccc43)cc2N1	9	4
c1ccc(CCNc2nnnn2-c2ccccc2)cc1	-2	4
O=C(CN1CCN(Cc2nc3ccccc3s2)CC1)N1CCc2ccccc21	26	3
CC(C)(C)c1ccc(C(=O)NCCc2ccccn2)cc1	6	2
O=C(CCC(=O)N1CCC(c2ccccc2)=N1)N1CCN(c2ccccc2)CC1	14	8
COc1ccc(C(=O)OCC(=O)c2cc3c4c(c2)CC(=O)N4CCC3)cc1Br	-4	-6
CN(CCO)CC(O)Cn1cnc2c1c(=O)n(C)c(=O)n2C (stereo not drawn) (tested in a mixture with another compound)	4	15
Cc1noc(C)c1CSCC(=O)Nc1nccs1	10	5
COC(=O)CNC(=O)c1ccco1	6	-2
Cc1ccc(NC(=O)CN2C(=O)CC(c3ccccc3)C2=O)cc1C (stereo not drawn)	16	8
COc1ccc(-c2nnc(SCCN3C(=O)c4ccccc4C3=O)o2)cc1	17	7
O=C(COC(=O)c1ccccc1Cl)NC1CCCC1	8	-4
N#Cc1ccc(OC(=O)Cc2coc3cc4c(cc23)CCC4)cc1	14	7
COC(=O)c1ccc(COC(=O)C23CC4CC(CC(O)(C4)C2)C3)o1	7	-1
CCn1c(-c2ccccc2)c(C(=O)CSc2nnc(-c3cccnc3)n2N)c2ccccc21	17	14
COC(=O)c1sccc1NC(=O)CC1(CC(=O)O)CCCC1	-2	3
COc1ccccc1N(Cc1c(C)noc1C)S(=O)(=O)c1cccs1	22	12
Cc1noc(C)c1C(=O)OCC(=O)Nc1ccc(SC(F)F)cc1	6	2
Cc1nc2scc(-c3ccccc3)c2c(=O)n1/N=C/c1ccco1	10	12
CC(NC(=O)c1ccc(CO)cc1)C(=O)O (stereo not drawn)	8	-2
Cc1nnc(SC(C)C(=O)NCc2ccco2)n1C1CCCCC1 (stereo not drawn)	4	-2
CCOc1ccccc1C(=O)NC1CCS(=O)(=O)C1 (stereo not drawn)	6	2
O=C(NC1CC1)c1cc(=S)[nH]c2ccccc12	70	45
Cc1ccc(N2CCN(/N=C3/C(=O)Nc4c(Cl)cc(Cl)cc43)CC2)cc1	23	17
Cn1cccc1/C=N/NC(=O)c1cccc(S(=O)(=O)NCc2ccccc2)c1	14	-2
CC(=O)NC(CC(=O)Nc1ccc(N2CCOCC2)cc1N1CCOCC1)c1ccccc1 (stereo not drawn)	12	-8
C[C@@H](C(=O)Nc1nc2ccccc2s1)N1C(=O)C2CC=CCC2C1=O (stereo partly drawn)	-4	-10

By substructure: the entries above containing an NH in an aromatic ring
SMILES	BmaI1	BmaI1 counterscreen
Cc1sc2nc(CSCC(=O)NC(=O)c3cccn3C)[nH]c(=O)c2c1C	8	0
CCOC(=O)C1=C(CC)Nc2ccccc2N=C1N=Cc1c(O)[nH]c(=O)[nH]c1=O	14	2
c1ccc(-c2[nH]nc(-c3ccc4c(c3)OCO4)c2-c2nc3ccccc3[nH]2)cc1	12	4
Cn1c(SC/C(O)=C(\C#N)c2nc3ccccc3[nH]2)nc2ccccc21	16	12
S=c1nccc(-c2ccccc2)[nH]1	108	105
Cc1[nH]c2ccccc2c1C(=O)C(C)OC(=O)C1CC1 (stereo not drawn)	8	2
Cc1ccc2nc(SC(C)C(=O)N3CC(C)OC(C)C3)[nH]c2c1 (stereo not drawn)	-2	0
O=C(Cn1[nH]c(=O)c2ccccc2c1=O)NCCCSc1ccc(F)cc1	-2	-1
CCCc1cc(=O)[nH]c(SC(C)C(=O)c2ccccc2)n1 (stereo not drawn)	2	2
Cc1ccc(-c2csc(/C(C#N)=C(\O)CSc3ncn[nH]3)n2)cc1	44	54
CCOC(=O)c1c(C)oc2nc[nH]c(=O)c12	-10	-11
O=C1NC(Cc2c[nH]c3ccccc23)C(=O)N1Cc1ccc(Cl)cc1 (stereo not drawn)	-2	-10
O=C(OCC(=O)N1CCCC1=O)c1n[nH]c2ccccc12	2	6
CC(Sc1nncn1C(C)C)C(=O)c1c[nH]c2ccccc12 (stereo not drawn)	16	8
CCOC(=O)c1c(-c2ccccc2)oc2ccc(OC(=O)Cc3n[nH]c(=O)c4ccccc34)cc12	11	12
O=C1CSc2ccc(C(=O)OCCCn3c(=O)[nH]c4ccccc43)cc2N1	9	4
O=C(NC1CC1)c1cc(=S)[nH]c2ccccc12	70	45
